# HCMV NEC inh: inhibitors of HCMV UL50-UL53 nuclear egress complex interaction | HTRF UL50-UL53 interaction, normalized percent inhibition | inhibition, % (test concentration not listed) | 190,000 compounds, 0.15% hits | AID 1918969;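 active means both replicates at 50% or more, plus weaker picks with an unusually low signal ratio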;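 further: stock transfer was 100 nL into about 20 µL; 0% = negative control wells and 100% = wells with untagged competitor protein; inactives centre near -12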
# Sa growth 42C: S. aureus growth inhibition | 170,000 compounds, 0.53% hits | relative growth, % (concentration not given with the values) | S. aureus RN4220 growth, OD600, 20 h, 42 °C; hits give low values;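 active means growth at 42 °C up to 50% and 20 or more points under that at 30 °C, or under 10% at both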;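 further: 300 nL library stock went into each well; scaled to the means of positive and negative controls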
# GIV-Gai inh: GIV-Galpha-i interaction inhibition. 210,000 compounds, 0.42% hits. AID 1224905. percent of control (FP), % (no concentration beside the values). P08753. Galpha-i3/FITC-GIV peptide fluorescence polarization, 90 min; hits give low values; scaled: aluminum fluoride 0%, vehicle 100%;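 active means replicate mean at 85% of control or lower, very high polarization wells dropped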;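 further: wells of about 15 µL received 100 nL stock; the first replicate is given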
# Target sequence (P08753 whole entry, looked up): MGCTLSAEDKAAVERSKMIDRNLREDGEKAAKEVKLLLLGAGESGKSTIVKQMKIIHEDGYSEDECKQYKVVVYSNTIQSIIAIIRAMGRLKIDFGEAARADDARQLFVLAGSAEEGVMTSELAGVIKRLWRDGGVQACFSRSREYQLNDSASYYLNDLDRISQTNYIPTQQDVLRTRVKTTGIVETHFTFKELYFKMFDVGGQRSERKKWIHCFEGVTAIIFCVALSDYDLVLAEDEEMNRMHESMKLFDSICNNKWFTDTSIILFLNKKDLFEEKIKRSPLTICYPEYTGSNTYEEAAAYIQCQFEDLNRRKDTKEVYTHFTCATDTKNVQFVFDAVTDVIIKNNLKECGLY
# Sa growth 42C second temp: also measured in Sa growth 42C; calls as there; relative growth, %; measured here: growth at 30 °C;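 optical density after 20 h as mean of two plates; 100% = untreated growth and lower means inhibition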
# * = called active by the depositor; . = not tested or not shown; & = joins results of further samples. No enrichment for hits; overall some 0.85% were active at least once.
SMILES,HCMV NEC inh,Sa growth 42C,Sa growth 42C second temp,GIV-Gai inh
COc1ccc(CCNC(=O)CSc2nnc(-c3ccc(C)cc3)c(-c3ccc(C)cc3)n2)cc1OC,.,105,81,113
CNS(=O)(=O)c1cccc(C(=O)OCC(=O)N2CCc3ccccc32)c1,2,93,97,.
CC1(C)CC(=O)C(C(C2=C(O)CC(C)(C)CC2=O)c2ccccc2)=C(O)C1,-13,75,91,.
Cc1cccc(C(=O)Nc2cnc3ccc(C)cn3c2=O)c1,-56,.,.,113
CCOc1cc(N2CCOCC2)c(OCC)cc1NC(=O)c1cc(S(=O)(=O)N(C)C)ccc1Cl,-12,107,91,.
CNC(=O)CCc1nnc2n(CC(C)C)c(=O)c3sccc3n12,-19,.,.,97
CCN1/C(=c2/sc3nc4ccccc4n3c2=O)Sc2ccc(OC)cc21,-1,87,89,.
CC(OC(=O)Cn1cnc2ccccc21)c1ccccc1Cl (stereo unspecified),-8,106,95,.
Cc1cc(NS(=O)(=O)c2ccc(NC(=O)COc3c(C)cc(Br)cc3C)cc2)no1,8,56,61,106
CCOc1cc(CNC(=O)c2ccc(NC(=O)c3nsc4ccccc34)cc2)ccc1OC,.,91,81,109
COc1ccc(CNC(=O)c2cnc3ccc(C)cn3c2=O)cc1,-54,92,84,102
Cc1nc2ncnn2c(C)c1CCC(=O)O,-26,113,91,101
Cc1ccc(-c2csc3nc(-c4cccc(Br)c4)oc(=O)c23)cc1,2,.,.,104
O=C(Cn1c(SCCOc2ccccc2Cl)nc2ccccc21)N1CCCCC1,-17,108,84,102
Cc1ccc(NC(=O)NCc2noc3ccccc23)nc1,.,85,84,106
COc1cccc(NC2OC(=O)c3ccccc32)c1 (stereo unspecified),-7,120,97,100
CCCn1c(O)c(C=Nc2ccccc2C(=O)NC2CC2)c(=O)[nH]c1=S,-7,88,94,.
COc1cccc(C2C(C(=O)O)c3ccccc3C(=O)N2C)c1 (stereo unspecified),.,85,85,111
CCc1nnc2c(NCc3cccc(OC)c3)nc3ccccc3n12,-8,97,95,105
CCOC(=O)CSC1=C(C#N)C(c2ccccc2C)C2=C(CCCC2=O)N1 (stereo unspecified),-53,87,70,95
O=C(COC(=O)c1cc(-c2cccs2)nc2ccccc12)c1ccc(F)cc1,-45,91,80,100
O=c1c2ccccc2nnn1CN1CCCCC1,.,119,90,95
OCCCn1c(-c2ccccc2)cn2c(-c3ccccc3)c(-c3ccccc3)nc12,-10,109,83,.
N#Cc1c(N2CCCC2)ccc(Br)c1Cl,7,130,103,104
O=C(NCc1ccco1)c1ccc2c(c1)N(Cc1c(F)cccc1Cl)C(=O)CS2,-26,87,86,106
O=C(Cn1c(=O)n2nc(-c3cccc(F)c3)nc2c2ccccc21)N1CCN(c2ccccc2F)CC1,.,95,102,101
O=C(NC1CCCCNC1=O)c1cn(S(=O)(=O)c2ccccc2)c2ccccc12 (stereo unspecified),-10,124,97,103
CC1CCN(S(=O)(=O)c2ccc3nc(NCc4ccccc4)ccc3c2)CC1,.,94,97,111
O=C(COC(=O)C1CCC1)Nc1cccc(Cl)c1Cl,-33,118,93,.
Cn1cc(S(=O)(=O)c2ccccc2)c(=O)c2cc(F)c(N3CCCCCC3)cc21,.,97,110,111
O=C(Nc1ccc(F)cc1F)C1CCCN1S(=O)(=O)c1cccc2nsnc12 (stereo unspecified),-39,95,87,106
O=C(O)c1sccc1-c1ccccc1,-4,101,77,.
O=S(=O)(Nc1cccc(Br)c1)c1ccc(Br)s1,10,30,15,106
N=C(N)c1ccc(C(N)=O)cc1,-22,89,86,96
CC(OC(=O)Cc1n[nH]c(=O)c2ccccc12)C(=O)Nc1ccc(Cl)cn1 (stereo unspecified),-31,84,95,.
O=C(CCOc1ccccc1)NCc1ccccc1,2,102,88,100
CCc1nc(-c2cc3ccc(C)cc3[nH]c2=O)no1,-7,87,94,105
O=C(Nc1ccc(Cl)cc1)C1=NS(=O)(=O)c2ccccc2N1,-24,99,81,103
COc1ccc(COC(=O)C2=C(C)NC(=O)NC2c2cccc(OC)c2OC)cc1 (stereo unspecified),-10,.,.,101
Cc1ccc(Cn2c(NC(=O)C3CCCCC3)nc3ccccc32)cc1,12,.,.,101
CC(=O)N1CCN(C(=O)c2ccc(-n3c(C)ccc3C)cc2)CC1,-13,80,76,.
COc1ccc(O)c(C(=O)c2cnn(-c3ccc(Cl)cc3)c2)c1,-32,97,86,.
CCn1c(C(=O)N2CCC(C(=O)NCc3ccc(C)cc3)CC2)cc2occc21,-19&-28,94,93,108&103
CN(Cc1ccccc1)C1CCN(Cc2ccc(Cl)cc2)CC1,9,94,88,101
C=CCc1c(C)[nH]n(-c2ccc(C(=O)O)cc2)c1=O,-4,81,89,99
CC(=O)N1C(C(=O)O)Cc2c([nH]c3ccccc23)C1C (stereo unspecified),-11,.,.,107
COc1ccc(Oc2ncnc3c2oc2ccccc23)cc1,.,129,81,106
COc1ccc(-c2c(C)oc3ccc(Cl)cc23)cc1,1,108,95,.
Cc1cccc(OCc2cc(=O)n3ccsc3n2)c1,-17,.,.,94
C=CCSc1nc2c(c(=O)[nH]1)C(c1cc(F)ccc1F)CC(=O)N2 (stereo unspecified),-8,.,.,100
COC(=O)CCc1c(C)[nH]n(-c2nc(-c3ccc(C)cc3)cs2)c1=O,-17,.,.,98
COCCn1nnc2cc(S(=O)(=O)N3CCCC3C(=O)NCc3ccc(OC)cc3)ccc21 (stereo unspecified),-6,.,.,106
O=S1(=O)CCN2N=C(C(F)(F)F)SC2=N1,3,95,96,.
CN/N=C/c1c(O)ccc2ccccc12,49*,72,47,.
Cc1csc(SCc2c(C(=O)Oc3ccc(-n4cnnn4)cc3)oc3ccccc23)n1,-13,112,96,.
CCOC(=O)N1CCN(CCC(=O)Nc2cccc(Cl)c2C)CC1,-2,111,83,104
O=C(NC1CCN(C(=O)Nc2ccccc2C(F)(F)F)CC1)c1ccco1,-18,118,84,102
CC1=CC(C)(C)Nc2ccc(OCC(=O)N3c4ccccc4Sc4ccccc43)cc21,.,93,63,108
Cc1onc(-c2ccccc2)c1CNC(=O)Nc1ccc(C(F)(F)F)cc1,-16,99,88,106
CS(=O)(=O)Cc1ccc(C(=O)Nc2ccccc2C(=O)NC2CC2)cc1,-8,68,87,.
# Next entries follow:
SMILES,HCMV NEC inh,Sa growth 42C,Sa growth 42C second temp,GIV-Gai inh
CCOC(=O)c1c(C)[nH]c(C)c1C(=O)COc1ccc2c(c1)OCO2,-9,103,98,.
Cc1ccc(-c2cc3c(nn2)-c2ccccc2C3=O)cc1,-86,103,98,94
O=C(Cn1cnc2ccccc2c1=O)Nc1ccc(Oc2ccccc2)cc1,2,110,102,108
CC1=CC2CC1C1C(=O)N(c3ccc(C(F)(F)F)cc3)C(=O)C21 (stereo unspecified),-2,109,98,102
Cc1cccc(CSc2nnc(-c3c[nH]c4ccccc34)n2C)c1,.,107,96,102
CSC1=NSC2=NC(=O)/C(=C\c3cccs3)C(=N)N12,.,27,7,101
COc1ccc(OC)c(S(=O)(=O)NCCS(=O)(=O)N2CCN(c3ccccc3F)CC2)c1,.,92,95,104
CC(=O)c1ccc(NC(=O)c2ncn(-c3ccccc3)n2)cc1,-6,104,91,105
O=C(O)CSc1nc2cccnc2s1,-10,101,88,107
CC(C)(C)N(N)C(=S)Nc1cccc(Cl)c1,-35,85,50,.
CC(C)c1ccc(NC(=O)Cc2ccc(NC(=O)N3CCCCc4ccccc43)cc2)cc1,.,94,94,98
CC1=NN(c2ccccc2)C(=O)C1(O)C1C(=O)c2ccccc2C1=O (stereo unspecified),36,75,88,74*
Cc1ccccc1Nc1nc(N)nc(CN(C)Cc2ccc(F)cc2)n1,-35,90,90,.
c1ccc(CN2CCOC(CNc3nc(-c4cccnc4)nc4ccccc34)C2)cc1 (stereo unspecified),-17,88,79,.
Cc1ccc2c(c1)N(C(C)C(=O)NC1CC1)C(=O)CO2 (stereo unspecified),2,108,85,99
O=C(CSc1oc(-c2ccccc2)nc1S(=O)(=O)c1ccc(Br)cc1)c1ccccc1,10,104,102,107
COc1ccc(C2CC(=O)c3cnc(NCc4ccccc4)nc3C2)cc1 (stereo unspecified),-13,114,94,102
c1ccc(-n2nnnc2Oc2cccc3cccnc23)cc1,.,-0.3*,-0.4*,104
CC(=O)N1CCc2c([nH]c3ccccc23)C1C (stereo unspecified),0,81,89,.
Cc1cccc(NC(=O)C(Cc2ccccc2)NS(=O)(=O)c2cccc3cccnc23)n1 (stereo unspecified),2,.,.,110
COc1ccc(NC(=O)CS(=O)CC(=O)Nc2cc(OC)ccc2OC)cc1 (stereo unspecified),9,102,102,105
O=C(Cn1cccc1C(=O)c1ccccc1)NCc1ccc(Cl)cc1,-31,91,88,101
CCc1ccccc1NC(=O)CSc1nc(-c2cccc(Cl)c2)nc2c1Cc1c(CO)cnc(C)c1O2,.,98,94,101
CC(=O)c1ccc(NS(=O)(=O)c2ccc(-c3cc(C)no3)s2)cc1,.,95,97,98
Cc1ccc(S(=O)(=O)c2ccc(NN)cc2)cc1,13,62,96,.
O=C(Cn1c(SCC(=O)Nc2ccc(F)cc2)nc2ccccc21)NCc1ccc(Cl)cc1,.,100,83,100
CCC(C)(C)n1nnnc1CN(Cc1ccccc1)Cc1cc2cc(OC)ccc2[nH]c1=O,-21,105,81,103
CC(=O)N1C(c2ccccc2)CC(=O)OC1c1ccc2c(c1)OCO2 (stereo unspecified),-21,84,80,98
O=S(=O)(/N=C/c1c(O)ccc2ccccc12)c1ccccc1,.,115,95,99
Cc1ccc(NC(=O)c2ccc(F)cc2)c(C)c1,.,104,75,105

# 7 successive entries from above, for reference:
SMILES,HCMV NEC inh,Sa growth 42C,Sa growth 42C second temp,GIV-Gai inh
CC(=O)c1ccc(NS(=O)(=O)c2ccc(-c3cc(C)no3)s2)cc1,.,95,97,98
Cc1ccc(S(=O)(=O)c2ccc(NN)cc2)cc1,13,62,96,.
O=C(Cn1c(SCC(=O)Nc2ccc(F)cc2)nc2ccccc21)NCc1ccc(Cl)cc1,.,100,83,100
CCC(C)(C)n1nnnc1CN(Cc1ccccc1)Cc1cc2cc(OC)ccc2[nH]c1=O,-21,105,81,103
CC(=O)N1C(c2ccccc2)CC(=O)OC1c1ccc2c(c1)OCO2 (stereo unspecified),-21,84,80,98
O=S(=O)(/N=C/c1c(O)ccc2ccccc12)c1ccccc1,.,115,95,99
Cc1ccc(NC(=O)c2ccc(F)cc2)c(C)c1,.,104,75,105

# Of the compounds above, these contain a cyano group:
SMILES,HCMV NEC inh,Sa growth 42C,Sa growth 42C second temp,GIV-Gai inh
CCOC(=O)CSC1=C(C#N)C(c2ccccc2C)C2=C(CCCC2=O)N1 (stereo unspecified),-53,87,70,95
N#Cc1c(N2CCCC2)ccc(Br)c1Cl,7,130,103,104

# (further entries)
SMILES,HCMV NEC inh,Sa growth 42C,Sa growth 42C second temp,GIV-Gai inh
Cn1cc(-c2cc3n(n2)CCC(=O)N3CC(=O)NCCCN2CCCC2)c2ccccc21,-29,.,.,100
CCCc1ccc(S(=O)(=O)N2CCC(N3CCN(Cc4ccc(F)cc4)C3=O)CC2)cc1,-22,.,.,107
CCCSc1ncc(Cl)c(C(=O)Nc2ccc(S(=O)(=O)N3CCCC(C)C3)cc2)n1 (stereo unspecified),-14,102,86,107
CCCN1CCC(NCc2ccc(Br)cc2)CC1,-10,101,106,100
CC(CN1CCN(Cc2ccccc2)CC1)OC(=O)c1cccs1 (stereo unspecified),-12,108,87,95
CC(C)c1ccc(NC2(C#N)C(=O)Nc3ccccc32)cc1 (stereo unspecified),-4,105,78,.
CCN(CC)C(=O)c1sc2c(c1C)c(=O)n(-c1ccc(OC)cc1OC)c(=O)n2Cc1cc(C)ccc1C,.,81,81,99
C=CCN1C(=O)/C(=C\c2cccs2)S/C1=N/c1nnc(C)s1,-26,.,.,96
CN(C)c1ccc(C(CNS(=O)(=O)c2cc(F)ccc2F)N2CCOCC2)cc1 (stereo unspecified),.,118,102,101
O=C(ON1C(=O)CCC1=O)c1ccccc1,-14,96,93,.
CCn1c(SCC(=O)Nc2cccc(Cl)c2)nnc1-c1nonc1NC(C)=O,15,91,76,101
O=C(O)CSCc1ccc(Cl)c(Cl)c1,9,137,98,.
Cc1ccc2c(c1)-c1onc(C(=O)N3CCCCC3c3cccnc3)c1CO2 (stereo unspecified),-34&-14,50,24,102&111
Cc1ccc(-c2noc(C3CCCCC3)n2)cc1,2,128,93,107
O=C(Nc1ccc(N2C(=O)CCC2=O)cc1Cl)C1CCCCC1,-13,91,98,106
CCN(C(=O)c1c(C)oc2ncnc(N3CCCCC3)c12)c1cc(C)ccc1C,6,89,90,109&97
CC(C)(C)c1c(C#N)sc2sc(C#N)c(N)c12,-4,89,88,99
CC(C)=C1C(=O)Nc2ccc(S(=O)(=O)N(CC(C)C)CC(C)C)cc21,-30,95,91,109
O=C(Cn1c(=O)oc2cc(S(=O)(=O)NCc3ccccc3)ccc21)N(CCO)Cc1ccccc1,.,107,85,104
O=C(CN1CCN(Cc2ccccc2F)C1=O)NCc1ccccc1,-1,89,91,108
O=C(CCCN1C(=O)c2ccccc2C1=O)OCc1nc2ccc(Cl)cc2n1CCO,-20,104,86,.
O=C(O)CNC(=O)c1cccs1,-22,110,92,.

# Bioassay records (PubChem)
